Screens from PubChem.
Vif TR-FRET – inhibitors of Vif binding to APOBEC3G peptide, primary screen, biochemical, TR-FRET, GST-Vif 1-94, biotin-A3G peptide, dose response retest (AID 1117319); inhibition, %; hits with a dose series show IC50 in µM; TR-FRET GST-Vif / biotin-A3G peptide binding; higher % means a stronger effect; test concentration not given here; strong numbers were not always called active; actives 0.57% (n = 260,000);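 active = above the screen mean plus three standard deviations and confirmed in dose response; inconclusive = results disagree or hit not tested in dose response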;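 note: Vif residues 1-94 fused to GST binding biotinylated APOBEC3G peptide 110-148; 0% = full assay without inhibitor and 100% = GST in place of GST-Vif; retest series ran down from 100 µM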
LANA-H2B inh – blocks KSHV LANA binding to histone H2A/H2B. actives 0.6% (n = 320,000). AID 2629. Q9QR71. cell-free LANA-H2A/H2B peptide, fluorescence polarization. inhibition, % (concentration not given with the values); in the data active = inhibition mostly above about 10%, no sharp cut-off; inactive = mostly below about 6.7%;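 note: stock transfer was 7.5 nL into about 10 µL; 0% = median of vehicle wells and 100% = median of positive control wells; one replicate is shown; the record names a cut of 25% in any replicate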
E coli growth – E. coli growth inhibition. Escherichia coli growth, OD600, 23 h; stronger effect = lower value. OD600 absorbance (concentration not given with the values). actives 0.21% (n = 330,000);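 active = OD600 absorbance below the run mean of sample wells minus 3.6 SD, in any replicate, cut at about 0.56 in these data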;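 note: stock transfer was 300 nL into about 60 µL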
UCH37 inh – human UCH37 deubiquitinating enzyme inhibition | Q9Y5K5 | purified proteasome/UCH37, Ub-AMC cleavage fluorescence | inhibition, % (test concentration not listed) | actives 0.33% (n = 330,000);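 active = mean of two replicates above 20%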;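 note: 0% = compound-free wells with enzyme and 100% = wells lacking proteasome; stock transfer was 100 nL into about 20 µL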
Target sequence (Q9Y5K5 whole entry, looked up): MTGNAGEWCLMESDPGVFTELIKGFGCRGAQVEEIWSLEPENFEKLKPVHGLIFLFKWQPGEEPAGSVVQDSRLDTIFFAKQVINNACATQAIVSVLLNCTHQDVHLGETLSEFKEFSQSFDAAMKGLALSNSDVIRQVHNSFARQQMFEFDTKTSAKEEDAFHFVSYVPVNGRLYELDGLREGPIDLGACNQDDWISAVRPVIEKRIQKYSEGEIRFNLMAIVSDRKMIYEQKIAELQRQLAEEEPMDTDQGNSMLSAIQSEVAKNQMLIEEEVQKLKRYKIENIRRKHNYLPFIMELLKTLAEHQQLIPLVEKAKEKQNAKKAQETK
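Signal – fluorescence, ex 355 nm, em 460 nm · System – Proteasome-bound UCH37 · Input – 0.15 nM proteasome as dispensed · Timing – 30 min preincubation with enzyme, 25 min cleavage at room temperature · Read-out basis – percent inhibition of cleavage signal versus uninhibited and no-proteasome wells · Medium – Tris-HCl pH 7.4 with ATP-MgCl2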
HNF4A DNA FP – change in binding of human HNF4 alpha to DNA; HNF4a-FITC DNA binding, fluorescence polarization, 1 h; activity change, % at 10 µM; actives 0.3% (n = 360,000); AID 1224865; in the data active = activity change above about 30%, passing the limit was not always enough;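 note: controls were the assay level and a saturating level of protein; the project sought stronger binding though the title names inhibitors; some compounds called inactive have numbers as strong as hits; positive values seem to mean higher polarization but the record does not say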
Bfl-1 A1 inh – inhibitors of the anti-apoptotic protein A1, read as caspase activation; actives 0.066% (n = 330,000); MEF A1-2A-BIM cells, Caspase-Glo 3/7 luminescence, 3 h; percent of clofoctol response, vehicle zero; caspase activation, % (concentration not given with the values); AID 2462;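 active = over half of replicate activation scores above 10%, or exactly half above 10 with the replicate mean above 10; inconclusive = replicate mean below 10 yet half the replicates above 10; inactive = over half of replicates below 10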;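 note: wells of about 30 µL received 50 nL stock; many hits fall short of the cut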
Beta2AR agonist – activates human beta-2 adrenergic receptor causing internalization | Am2.2-beta2AR cells, FAP receptor internalization, flow cytometry; reference of the scale not given here | response, % (concentration not given with the values) | actives 0.43% (n = 340,000) | AID 504454;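 active = response above a set limit, near 3 SD of response in nonfluorescent compounds, cut at about 42% in these data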;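 note: stock transfer was 100 nL into about 11 µL; a reference agonist was the positive control; negative values mostly stem from fluorescent compounds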
Target sequence (P07550 whole entry, looked up): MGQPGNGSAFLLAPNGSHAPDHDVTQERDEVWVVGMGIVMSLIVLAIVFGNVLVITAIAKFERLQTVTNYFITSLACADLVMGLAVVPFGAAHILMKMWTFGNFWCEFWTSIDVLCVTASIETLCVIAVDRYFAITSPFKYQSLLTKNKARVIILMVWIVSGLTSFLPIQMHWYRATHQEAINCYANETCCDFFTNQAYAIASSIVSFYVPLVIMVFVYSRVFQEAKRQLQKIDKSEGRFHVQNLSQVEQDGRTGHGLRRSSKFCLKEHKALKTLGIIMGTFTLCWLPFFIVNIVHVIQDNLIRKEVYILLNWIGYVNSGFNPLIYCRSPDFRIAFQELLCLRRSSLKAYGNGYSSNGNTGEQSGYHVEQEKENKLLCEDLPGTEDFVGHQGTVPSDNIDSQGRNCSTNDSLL
The depositor's hits bear a star; i = inactive; ? = inconclusive; . = no result given; & = joins results of further samples. The order is random; about 2.1% have a hit in one of these screens.

SMILES	Vif TR-FRET	LANA-H2B inh	E coli growth	UCH37 inh	HNF4A DNA FP	Bfl-1 A1 inh	Beta2AR agonist
CC(Sc1n[nH]c(N)n1)C(=O)Nc1cccc(S(=O)(=O)N2CCOCC2)c1 (stereo not given)	-5%	-0.8	0.66	0.1	-4.2	-0.2	3
Cc1ccc(C(=O)CCC(=O)Nc2ccccc2C)c(C)c1	5%	-4.0	0.67	3.1	2.3	-1.5	7
COc1ccc(CCN2CC(C(=O)O)CC2=O)cc1OC (stereo not given)	4%	-6.4	0.73	0.8	0.2	1.7	4
CC(C)COP(=O)(OCC(C)C)C(Nc1ccccc1)c1ccc2c(c1)OCO2 (stereo not given)	4%	1.2	0.75	4.0	1.1	-0.3	1
COC(=O)c1sccc1NC(=O)c1cccc(F)c1	.	1.1	0.7	4.1	-3.2	0.1	-1
CCn1c(SCC(=O)c2ccccc2)nnc1-c1ccoc1C	-3%	-1.8	0.72	0.5	2.4	-0.4	1
O=[N+]([O-])c1ccc(N/N=C\c2cccnc2)nc1	6%	-1.6	.	.	-3.0	-3.1	-5
C#CCOCCOCCOCCNc1nc(N2CCOCC2)nc(N2CCN(C(=O)[C@H](Cc3cc4ccccc4[nH]3)n3cc([C@@H](N)CC(C)C)nn3)CC2)n1	-4%	0.4	.	4.2	1.3	-0.5	3
Cc1ccc(NC(=S)NNC(=O)c2ccccc2O)c(C)c1	28%	-5.0	0.63	-14	8.9	1.4	-3
CSCCC(NC(=O)COc1ccccc1)C(=O)N1CCN(c2cccc(C(F)(F)F)c2)CC1 (stereo not given)	4%	.	0.69	-3.3	-1.1	.	2
COc1ccccc1/C=N/NC(=S)NCc1ccco1	0%	-9.9	.	.	-1.4	-0.3	-8
Cc1ccc(SCCN2CCN(CC(C)C)CCC2=O)cc1	.	.	0.66	3.8	-0.9	.	-8
Cc1ccc(NC(=O)COC(=O)Cn2cnc3c2c(=O)n(C)c(=O)n3C)cc1Cl	-4%	0.0	0.66	2.2	0.2	0.5	3
C/C(=N\NC(=O)c1ccc(Cl)cc1)c1cccc(NC(=O)C(C)C)c1	-3%	1.2	.	.	-5.2	-0.2	9
Cc1nc(NC(C)c2ccccc2)sc1C(=O)Nc1ccccc1 (stereo not given)	-4%	-1.0	0.67	0.6	-1.5	0.2	9
O=C1N(CN2CCC3(CC2)OCCO3)c2ccccc2C12OCCCO2	-3%	3.6	0.74	3.3	-0.6	0.8	3
CCOc1ccc(NS(=O)(=O)c2ccc(C(=O)NCC(c3ccco3)N3CCCC3)cc2)cc1 (stereo not given)	-3%	-0.7	0.65	3.5	2.5	-1.4	16
O=C(CCNc1n[nH]c(=O)[nH]c1=O)N/N=C/c1ccccc1Br	4%	2.0	.	.	-1.7	0.4	-5
CCOC(=O)c1c(-c2ccc(F)cc2)csc1NC(=O)C1CCCO1 (stereo not given)	-6%	0.7	0.71	4.9	0.8	0.2	0
CCN(CC)S(=O)(=O)c1ccc(NC(=O)c2ccc(NS(C)(=O)=O)cc2)cc1	9%	1.3	0.68	4.8	-2.2	0.5	16

Entries of single compounds, looked up by structure:
`Cc1ccc(SCCN2CCN(CC(C)C)CCC2=O)cc1` in the list: Vif TR-FRET: .; LANA-H2B inh: .; E coli growth: 0.66; UCH37 inh: 3.8; HNF4A DNA FP: -0.9; Bfl-1 A1 inh: .; Beta2AR agonist: -8
`O=C1N(CN2CCC3(CC2)OCCO3)c2ccccc2C12OCCCO2` in the list: Vif TR-FRET: -3%; LANA-H2B inh: 3.6; E coli growth: 0.74; UCH37 inh: 3.3; HNF4A DNA FP: -0.6; Bfl-1 A1 inh: 0.8; Beta2AR agonist: 3

Later entries:
SMILES	Vif TR-FRET	LANA-H2B inh	E coli growth	UCH37 inh	HNF4A DNA FP	Bfl-1 A1 inh	Beta2AR agonist
CCc1ccc(NC(=O)CSc2nc3ccccc3c(=O)n2CCN2CCOCC2)cc1	-9%	-3.7	.	.	1.2	0.1	-13
CCOC(=O)c1c(N)c(C#N)nn1-c1ccccc1C(=O)OC	-3%	.	0.66	2.7	.	.	.
COC(=O)[C@@]1(Cc2ccc(F)cc2)[C@H]2c3cc(C(=O)N(C)C)n(CCc4ccccn4)c3C[C@H]2CN1C(=O)c1ccccc1	26%	-1.1	.	3.8	.	0.8	.
COc1ccccc1OCCCOc1c(Cl)cc(C)cc1Cl	10%	-1.7	.	.	1.0	0.6	-7
NC(=S)N/N=C/c1ccc2c(c1)OCCO2	.	3.2	.	.	4.2	-1.8	4
Cn1c2ccccc2c2cc(C(=O)N3CCN(CCO)CC3)sc21	9%	1.7	0.68	2.2	-1.4	-1.1	9
CC(C(=O)N1CCC(C(N)=O)CC1)N(c1ccc(Oc2ccccc2)cc1)S(C)(=O)=O (stereo not given)	-3%	0.9	0.72	1.3	-4.1	-0.8	-12
CCCS(=O)(=O)N1CCC(Cc2ccc(OC)cc2)(C(=O)OCC)CC1	-4%	3.4	0.68	6.4	-2.6	-0.3	-11
CCCNC(=O)C1CC(c2cccc(F)c2)=NO1 (stereo not given)	.	-7.7	0.67	0.1	1.8	0.8	1
CCS(=O)(=O)NCCc1csc(C)n1	11%	-3.6	0.71	3.0	-2.0	0.6	1
COc1cc(-c2cc(OC)c(O)c(OC)c2)cc(OC)c1O	31%	.	0.66	-0.9	1.0	.	-3
COc1ccc(/C=C/C(=O)c2ccc([N+](=O)[O-])o2)cc1OC	.	6.8	.	2.2	.	1.6	.
COc1cc2cc(C[C@H](C)O)oc(=O)c2cc1OC	.	-2.4	0.79	2.7	2.0	-0.1	-2
CCN(CC)CCNC(=O)c1ccc(NC(=O)c2c(C)nn(-c3ccc(F)cc3)c2Cl)cc1	1%	-4.5	0.64	4.5	2.5	0.2	5
CCC(c1nnc(SCC(=O)N2CC3(C)CC2CC(C)(C)C3)o1)N(C)C (stereo not given)	-4%	3.0	0.7	-0.7	-0.6	-0.5	-2
Cc1[nH]c2ccccc2c1N=Nc1cccc(C(=O)O)c1	2%	-1.2	0.69	16	-0.7	-0.8	14
NC(=O)C1CCN(c2nc(-c3ccccc3C(F)(F)F)cs2)CC1	.	1.0	0.67	0.0	2.3	0.5	-1
COc1ccc(C2(NC(C)=O)CCN(Cc3cccnc3)CC2)cc1	.	-2.1	0.66	3.3	2.6	0.2	3
Cc1ccc(-c2[nH]c3ccccc3c2SCCN)cc1	-10%	1.8	0.62	-10	0.8	0.8	-2
CC1CN(c2ccccn2)C(C)CN1C(=S)Nc1ccccc1 (stereo not given)	-11%	.	0.71	-0.1	5.7	.	-1
O=C(NCCc1cn2ccccc2n1)C1CCCCC1	1%	-0.1	0.67	-0.5	3.2	1.3	-1
Cc1c(/C(O)=C2\C(=O)C(=O)N(CCN(C)C)C2c2ccco2)cnn1-c1ccccc1 (stereo not given)	?	0.8	0.71	8.2	-1.4	-0.5	-2
O=C(COc1ncnc2sccc12)N1CCN(S(=O)(=O)c2ccc(Cl)cc2)CC1	8%	2.0	0.68	6.0	1.4	0.1	-3
Cc1nnc(SCCC(=O)Nc2ccc(F)cc2)s1	-1%	9.5	0.7	-2.8	-0.6	-0.1	2
Cn1cc(CN2CCN(Cc3ccccc3)CC2)c(-c2cccc(Cl)c2)n1	9%	-4.6	0.67	3.5	1.1	0.5	-7
CC(=O)Nc1ccc(NC(=O)CSc2nnnn2-c2ccc3c(c2)OCCO3)cc1	2%	0.7	0.7	2.7	-5.4	-0.3	7
O=C(O)CC(C(=O)N(c1ccccc1)c1ccccc1)N1CCOCC1 (stereo not given)	-1%&7%	10	0.67	5.8	-2.6	0.8	-1
Cc1ccc(CN2CCSc3ccc(C(=O)NCCCN4CCN(C)CC4)cc32)cc1	-7%	5.0	0.69	i	0.8	-0.1	15
O=C(Nc1cccc(Cl)c1)c1nc[nH]c1C(=O)N1CCN(c2ccccc2)CC1	.	-3.6	0.67	-0.6	3.2	-0.8	-5
Cc1nc(-c2ccc(S(=O)(=O)Nc3cccc(Cl)c3)cc2)co1	.	-4.3	0.66	3.2	2.2	-1.0	5
Cc1ccc(S(=O)(=O)N(CC(=O)NCCSCc2ccco2)c2ccc(F)cc2)cc1	?	-0.8	0.71	4.3	.	-0.3	.
O=C(Nc1c(C(=O)O)[nH]c2ccc(F)cc12)c1cccc(C(F)(F)F)c1	-5%	0.2	0.67	7.2	1.2	-0.2	-2
Cc1cccc(OCc2nnc(SCC(=O)N3CC(=O)Nc4ccccc43)o2)c1	-6%	-3.8	0.68	3.8	2.7	-0.1	-3
Cc1cccc(C)c1-n1c(C)cc(/C=N/NC(=O)CSc2ncccn2)c1C	-6%	3.0	.	.	0.8	-0.7	4
O=C(NNC(=O)c1cccs1)c1ccccc1	-3%	0.5	0.6	1.5	1.1	-0.8	-1
C=CCN(c1ccc(Cl)cc1)S(=O)(=O)c1cccc(C(=O)O)c1	-9%	2.5	0.66	-0.9	11	-0.3	6
CC(C)(C)n1nnnc1C(c1cccnc1)N1CCN(c2ccccc2F)CC1 (stereo not given)	.	-2.1	0.74	0.5	1.3	0.0	-5
Cc1cccc2nc(CSc3nc4ccc([N+](=O)[O-])cc4[nH]3)cn12	.	-4.8	0.65	5.3	-1.9	-0.2	-4
O=C(O)CC1(CC(=O)Nc2cc(F)ccc2Cl)CCCCC1	-2%	3.3	0.68	1.9	-0.7	0.2	-1
O=C(N/N=C/c1ccco1)c1ccccc1OCc1ccc(Br)cc1	?	-0.8	.	.	3.2	1.5	-35

Results in UCH37 inh, HNF4A DNA FP and Bfl-1 A1 inh, for some of the entries so far:
SMILES	UCH37 inh	HNF4A DNA FP	Bfl-1 A1 inh
CCOC(=O)c1c(N)c(C#N)nn1-c1ccccc1C(=O)OC	2.7	.	.
COC(=O)[C@@]1(Cc2ccc(F)cc2)[C@H]2c3cc(C(=O)N(C)C)n(CCc4ccccn4)c3C[C@H]2CN1C(=O)c1ccccc1	3.8	.	0.8
COc1ccccc1OCCCOc1c(Cl)cc(C)cc1Cl	.	1.0	0.6

More compounds
SMILES	Vif TR-FRET	LANA-H2B inh	E coli growth	UCH37 inh	HNF4A DNA FP	Bfl-1 A1 inh	Beta2AR agonist
O=C(Nc1ccccc1Cl)c1ccc(-c2ccccn2)s1	-7%	-7.1	0.66	-17	-2.1	-7.3	-2
CCCCNC(=O)Cc1c(OC)ccc2cc(Br)ccc12	5%	-2.8	0.68	2.3	4.0	-0.1	-9
CC(C)(O)c1cn(-c2nonc2N)nn1	0%	-5.2	0.75	2.4	-1.4	0.4	2
Oc1c(C(c2cccs2)N2CCN(c3ccccc3)CC2)sc2ncnn12 (stereo not given)	-1%	2.7	0.65	4.4	4.8	0.3	-7
O=C(CO/N=C/c1ccccc1)Nc1c(F)c(F)c(F)c(F)c1F	0%	-13	.	.	2.3	-0.9	-4
Cc1cccc(CS(=O)(=O)Cc2ccc(C(=O)NCCc3ccccc3)o2)c1	2%	-6.7	0.67	-2.8	0.6	0.8	5
COc1ccc(C2=NN(c3nc(-c4ccc(CNC(C)=O)cc4)cs3)C(c3ccco3)C2)cc1 (stereo not given)	.	-4.2	0.62	-49	15	0.3	10
CCC(C)[C@H](NC(=O)c1cc2cc(Cl)ccc2n1C)C(=O)N1CCC[C@H]1C(=O)O (stereo not given in full)	.	1.1	0.72	-0.2	2.9	-0.1	-4
CC(C)CC(=O)N1CCN(Cc2ccccc2Cl)CC1	.	-3.1	0.66	5.5	0.6	0.5	-2
O=C(CN1CC(c2ccccc2)CC1=O)OCc1cccc(Br)c1 (stereo not given)	0%	4.8	0.65	1.4	6.2	0.5	2
O=S(=O)(c1cccc2nsnc12)N1CCN(c2ccc(F)cc2)CC1	-3%	9.4	0.68	6.2	1.7	-0.3	3
COC(=O)CSc1nccc(-c2ccc(F)cc2)c1C#N	1%	0.6	0.71	4.4	-0.1	0.7	2
